GLA inh pH 4.5: alpha-galactosidase A (human) inhibition, pH 4.5. AID 1467. 230,000 tested, under 10 active. activity change, negative = inhibition, % at 105 µM. P06280. purified enzyme, 4-MU-alpha-Gal fluorescence, pH 4.5; inconclusive = small, poorly fitted or top-dose-only inhibition, or a rising curve; inactive = flat fitted curve, though single readings scatter; no compound was filed as active;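 further: 0% = full activity with enzyme and -100% = basal without enzyme; dose as in the result columns while the protocol names 77 µM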
Rango complex inh: prevents formation of the Rango-importin beta complex. Potency, µM (top dose mostly 92.2 µM), for inactives: at the highest dose inhibition of complex formation. Q14974. hit rate 0.031% among 340,000. Rango CFP/YFP FRET sensor + importin beta, 45 min; active = rising FRET ratio curve, often small or poorly fitted; inconclusive = mostly compound fluorescence or quenching in the first reads; inactive = flat curves in all reads;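 further: potency means the concentration at half of the fitted maximal effect; 0% = DMSO wells and 100% = buffer wells lacking importin beta; nearly all actives have a fitted effect of over 15% in size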
Target sequence (Q14974 whole entry, looked up): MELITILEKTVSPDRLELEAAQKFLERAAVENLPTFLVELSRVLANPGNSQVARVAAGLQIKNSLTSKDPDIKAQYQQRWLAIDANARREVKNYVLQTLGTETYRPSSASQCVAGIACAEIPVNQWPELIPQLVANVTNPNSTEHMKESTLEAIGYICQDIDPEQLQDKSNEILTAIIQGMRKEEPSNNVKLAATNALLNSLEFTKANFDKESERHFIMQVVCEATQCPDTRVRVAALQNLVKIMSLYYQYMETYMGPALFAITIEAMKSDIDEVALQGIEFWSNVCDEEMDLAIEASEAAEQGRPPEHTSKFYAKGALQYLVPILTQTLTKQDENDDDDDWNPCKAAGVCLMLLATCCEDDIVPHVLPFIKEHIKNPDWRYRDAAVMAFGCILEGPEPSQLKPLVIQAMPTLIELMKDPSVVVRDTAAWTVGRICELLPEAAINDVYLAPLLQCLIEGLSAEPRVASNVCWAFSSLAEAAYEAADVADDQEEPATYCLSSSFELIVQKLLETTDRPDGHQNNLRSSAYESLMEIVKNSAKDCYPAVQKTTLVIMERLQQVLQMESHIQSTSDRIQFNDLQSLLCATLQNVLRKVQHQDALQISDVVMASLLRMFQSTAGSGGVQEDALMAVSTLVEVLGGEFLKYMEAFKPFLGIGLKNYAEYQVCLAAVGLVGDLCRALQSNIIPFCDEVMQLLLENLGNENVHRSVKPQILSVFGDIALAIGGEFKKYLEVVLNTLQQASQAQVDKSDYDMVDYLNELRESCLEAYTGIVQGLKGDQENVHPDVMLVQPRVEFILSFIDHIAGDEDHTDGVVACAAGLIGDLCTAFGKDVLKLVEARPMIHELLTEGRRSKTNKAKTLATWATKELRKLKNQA
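FRET biosensor Rango (snurportin 1 IBB between N-terminal EYFP and C-terminal Cerulean), 50 nM in PBS/1 mM DTT/0.02% Tween-20/0.1% BSA, preincubated 5 min RT with compound; 0.125 microM importin beta added, 45 min RT, CFP/YFP FRET ratio read.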
miR-21 FLuc: miR-21 reporter, rising signal. HeLa miR-21 FLuc reporter, luciferase, 48 h. Potency, µM (top dose mostly 38.3 µM), for the others: at the highest dose reporter change, positive = more light. 340,000 tested, under 10 active. AID 2288; active = well fitted rising curve with a large enough effect; inconclusive = small, poorly fitted or top-dose-only effect; inactive = no such curve, though single readings can be large or run the other way;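 further: % of control where 0% means no effect; miR-21 action dims this reporter so a rising signal means less miR-21 action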
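HeLa cells stably expressing CMV-driven firefly luciferase with a downstream miR-21 binding sequence, endogenously expressing miR-21, were treated with titrations (up to about 40uM final) for 48 hours at 37 degree Celsius. Luciferase luminescence was read after lysis.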
Rango dissoc inh: inhibitors of RanGTP-induced Rango-importin beta complex dissociation; hit rate 0.071% among 340,000; Biochemical FRET Rango-importin beta, RanGTP-induced dissociation; O95149+P62826; Potency, µM (top dose mostly 46.1 µM), inactives show at the highest dose activity change, negative = inhibition; AID 540253; active means falling FRET ratio curve, often poorly fitted, with flat reads before Ran was added; inconclusive means other falling curves, or compound fluorescence or quenching; inactive means flat or rising ratio curve;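 further: potency means the concentration at half of the fitted maximal effect; % of control where 0% means no effect; nearly all actives have a fitted effect of over 45% in size; -100% = wells without RanGTP and RCC1; the record marks most hits as doubtful in a second field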
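Quantitative HTS using a FRET biosensor: 0.1 uM Rango, 0.25 uM importin beta, 0.6 uM Ran, 2 mM GTP, 0.2 uM RCC1 final, PBS with DTT, Tween-20 and BSA. Post-read taken 45 min after Ran addition.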
Numbers without * were called inactive; ? = inconclusive; . = no result given; & = joins results of further samples. A portion of the library (hit frequency here may not be typical).

The line under a structure holds: Rango complex inh	miR-21 FLuc	GLA inh pH 4.5	Rango dissoc inh
CC(=O)c1ccc(N(C(=O)CNC(=O)c2ccco2)C(C(=O)NCC2CCCO2)c2ccccc2)cc1 (stereo unspecified)
    0.6%	13%	-1	1%
Cc1cc(NC(=O)COC(=O)c2cccc(S(=O)(=O)N(C)C3CCCCC3)c2)no1
    -1.8%	-4%	-3	-5%
COC(=O)c1cn(NC(=O)Cc2ccc(Cl)cc2)c(=O)c2ccccc12
    -1.9%	0%	-7	4%
COc1ccc(/C=N/Nc2ncc(Br)cn2)c(OC)c1
    0.2%	-43%	3	9%
CS(=O)(=O)c1ncc(Cl)c(C(=O)Nc2ccc(OC(F)F)cc2)n1
    -3.6%	?	.	10%
CCn1cc(CNC(=O)c2ccc(Cl)c([N+](=O)[O-])c2)c(C)n1
    2.0%	1%	-13	26%
Cc1ccc(C)c2nc(Cl)c(C#N)cc12
    -0.7%	1%	5	-13%
CCc1nnc(NC(=O)C2CCCN2S(=O)(=O)c2ccccc2)s1 (stereo unspecified)
    10%	-1%	-7	7%
CC(C)C(OC(=O)CCC(=O)Nc1nccs1)C(=O)NC1CCCCC1 (stereo unspecified)
    4.7%	16%	8	7%
COC(=O)c1ccc(NC(=S)N2CCN(Cc3cccc(C)c3)CC2)cc1
    3.6%	0%	-9	0%

An excerpt from above, reduced to Rango complex inh and GLA inh pH 4.5.
smiles	Rango complex inh	GLA inh pH 4.5
CCn1cc(CNC(=O)c2ccc(Cl)c([N+](=O)[O-])c2)c(C)n1	2.0%	-13
Cc1ccc(C)c2nc(Cl)c(C#N)cc12	-0.7%	5

Sorted by value in Rango complex inh (lowest first): four of the compounds above.
The line under a structure holds: Rango complex inh	miR-21 FLuc	GLA inh pH 4.5	Rango dissoc inh
COC(=O)c1cn(NC(=O)Cc2ccc(Cl)cc2)c(=O)c2ccccc12
    -1.9%	0%	-7	4%
CC(=O)c1ccc(N(C(=O)CNC(=O)c2ccco2)C(C(=O)NCC2CCCO2)c2ccccc2)cc1 (stereo unspecified)
    0.6%	13%	-1	1%
COC(=O)c1ccc(NC(=S)N2CCN(Cc3cccc(C)c3)CC2)cc1
    3.6%	0%	-9	0%
CC(C)C(OC(=O)CCC(=O)Nc1nccs1)C(=O)NC1CCCCC1 (stereo unspecified)
    4.7%	16%	8	7%

The list goes on.
The line under a structure holds: Rango complex inh	miR-21 FLuc	GLA inh pH 4.5	Rango dissoc inh
Cc1ccc(-c2nnn(CC(=O)N(CCO)C(C(=O)NC3CCCC3)c3ccc(F)cc3)n2)o1 (stereo unspecified)
    -2.2%	-6%	-4	-4%
CC(C)OC(=O)Cn1c(-c2ccccc2)c(-c2ccccc2)nnc1=O
    -4.3%	1%	.	5%
Cc1ccccc1OCCSc1nc2ccccc2n1CCC(=O)O
    -0.7%	-19%	.	3%
O=C(COC(=O)C1CCC1)NC(=O)c1ccccc1
    -1.2%	.	.	0%
Nc1nc2ccccc2n1CCOc1ccc(F)cc1
    -1.2%	9%	.	-10%
CC(NC(=O)CSc1ncccn1)c1ccc(Cl)cc1Cl (stereo unspecified)
    -2.2%	-17%	6	1%
O=S(=O)(Nc1nccs1)c1cc(Cl)ccc1Cl
    -1.8%	-5%	-1	-2%
O=C(N/N=C/c1cc2cc3c(cc2nc1Cl)OCCO3)c1ccccc1O
    -0.7%	-2%	-3	-14%
O=C(NNC(=O)C1CCN(Cc2ccccc2)CC1)c1cccc(Cl)c1
    ?	-2%	2	-8%
CC(=O)Nc1cc(NC(C)=O)cc(-c2nc3ccccc3[nH]2)c1
    0.0%	16%&13%	9	2%
CC(=O)C1=C(C)NC(SCC(=O)c2cc(Cl)ccc2Cl)=C(C#N)C1c1ccco1 (stereo unspecified)
    ?	1%	-7	?
CCOC(=O)CSc1ncc(OC)c(Sc2ccc(OC)cc2)n1
    -4.8%	3%	0	19%
Cc1c(Cl)c([N+](=O)[O-])nn1CCCC(=O)NC(C)c1ccccc1 (stereo unspecified)
    1.7%	-11%	5	-1%
CN(C)S(=O)(=O)c1cccc(C(=O)Nc2ccccc2N2CCCCC2)c1
    -2.5%	4%	.	7%
CCOC(=O)c1c(N)sc2c(NC(C)=O)cccc12
    0.7%	-1%	-2	4%
COC(=O)[C@@H]1C[C@H]2CC[C@H](O)C[C@H]2N1Cc1ccc(C)s1
    -0.5%	5%	-4&0	-16%
CN1C2CCC1/C(=C\c1ccccc1Cl)C(=O)/C2=C\c1ccccc1Cl
    .	-4%	-1	.
Nn1cnnc1SCC(=O)Nc1ccc2c(c1)OCO2
    1.0%	-1%	6	-8%
CC(=O)N1CC(C)c2scc(C)[n+]2-c2ccccc21 (stereo unspecified)
    -1.7%	-3%	3	2%
Cc1ccccc1OCC(=O)NC(=S)Nc1cccc2cc(O)ccc12
    -2.2%	-1%	.	12%
Cc1cc(=O)[nH]c(N/N=C/c2ccc(OC(=O)c3cccnc3)cc2)n1
    0.3%	-2%	-7	-10%
Cc1occc1C(=O)N1CCN(S(C)(=O)=O)CC1
    -1.7%	-2%	1	-6%
COc1ccc(-n2c(C)nc(N)c2C(=O)c2ccccc2)cc1
    -1.8%	0%	-3	4%
Nc1cccnc1Sc1ccc(Cl)cc1
    -0.5%	-12%	-8	-3%
CCc1ccc(Nc2cnn(-c3nc4ccccc4s3)c(=O)c2Cl)cc1
    ?	-41%	-12	1%
CCn1nc(C)c(/C=N\NC(=O)c2ccc3c(c2)OCO3)c1C
    -1.8%	-27%	-2	0%
O=C1c2cccc(NCCNCCO)c2C(=O)c2cccc(NCCNCCO)c21
    -4.9%	.	.	4%
Cn1c(=O)[nH]c(=O)c2c1nc(N)n2Cc1ccccc1
    -5.0%	2%	.	21%
Cn1cnc2nc[nH]c2c1=S
    0.3%	.	.	5%
COc1cc(NC(=O)CSc2ncnc3sc4c(c23)CCC(C)C4)c(C(=O)O)cc1OC (stereo unspecified)
    -0.1%	-6%	.	-3%
COC1OC2COC(c3ccccc3)OC2C(O)C1N (stereo unspecified)
    8.3%	.	.	-9%
CC(C)CC1c2[nH]c3ccccc3c2CCN1C(=O)CCC(=O)N(C)C (stereo unspecified)
    ?	-16%	-8	?
CCSC1=C(C#N)C(c2ccccc2Cl)CC(=O)N1 (stereo unspecified)
    1.6%	-8%	-2	1%
Cc1ccc(NC(=O)CN2CCc3cc4c(cc3C2C)OCCCO4)cc1 (stereo unspecified)
    6.9%	0%	.	4%
COc1ccc(NC(=O)CSc2nnc(NC(=O)c3ccco3)s2)cc1OC
    -1.9%	3%	.	10%
CCc1nonc1NC(=O)c1oc2ccccc2c1C
    4.5%	-49%&-44%	.	1%
O=C(CCCN1C(=O)c2cccc3cccc(c23)C1=O)NCc1cccnc1
    -0.1%	-1%	1	15%
CCOc1ccc(S(=O)(=O)N2CCC(C(=O)N3CCOCC3)CC2)cc1Cl
    -0.8%	-2%	.	1%
Cc1nc(-c2ccc([N+](=O)[O-])cc2)sc1C(=O)O
    3.8%	-55%	1	-3%
Nc1ccccc1-c1nnc(-c2ccccc2N)n1N
    0.6%	-33%	3	0%
Cc1cc(C(=O)Cn2cc([N+](=O)[O-])ccc2=O)c(C)n1CC1CCCO1 (stereo unspecified)
    -5.8%	.	.	-5%
CSC1=NCCN1S(=O)(=O)c1ccc(Cl)cc1
    4.3%	0%	3	-9%
CC1CCCC(C)N1C(=O)c1ccc2c(c1)S(=O)(=O)c1ccccc1C2=O (stereo unspecified)
    0.1%	1%	.	-18%
CCN(CC)C(=O)Cn1cc(S(=O)(=O)CC(=O)Nc2ccc(F)cc2F)c2ccccc21
    0.6%	0%	.	-10%
Cc1cccc(N2CCN(Cc3ccc([N+](=O)[O-])o3)CC2)c1C
    1.9%	2%	.	-3%
Cc1ccc(S(=O)(=O)N2CCC(C(=O)NCCCN3CCOCC3)CC2)cc1C
    -0.5%	.	.	-10%
COCCCNCC(O)COc1cccc2[nH]c(C)cc12 (stereo unspecified)
    -1.3%	0%	8	4%
Cc1cc(C(=O)COc2ccccc2C(N)=O)c(C)n1C
    4.8%	-25%	7	9%
CCCCS(=O)(=O)/C=C\C=C/S(=O)(=O)CCCC
    0.1%	?	4	-10%
CS(=O)(=O)Nc1ccccc1C(=O)NC1CC2CCC1C2 (stereo unspecified)
    -1.7%	-4%	2	9%

(listing goes on)
The line under a structure holds: Rango complex inh	miR-21 FLuc	GLA inh pH 4.5	Rango dissoc inh
O=C1NC[C@H](Cc2ccccc2)N(CC2CCN(CCC34CC5CC(CC(C5)C3)C4)CC2)C1=O
    0.6%	.	.	?
COc1ccc(N2CCN(S(=O)(=O)CC34CCC(CC3=O)C4(C)C)CC2)cc1 (stereo unspecified)
    -4.0%	2%	.	-7%
Cc1ccc(S(=O)(=O)C(C#N)c2nc3ccccc3nc2N2CCCCC2)cc1 (stereo unspecified)
    .	-5%	5	.
COc1ccc(NC(=O)CSc2nncs2)cc1S(=O)(=O)N1CCCCC1
    -1.1%	.	.	-3%
COc1ccc(S(=O)(=O)Nc2c(NC3CCCCC3)c3ccccc3oc2=O)cc1
    -0.7%	3%	.	7%
CCOC(=O)c1c(C=O)c(C)n(Cc2ccc(C)cc2)c1C
    0.1%	18%	3	7%
O=S(=O)(c1ccc(S(=O)(=O)N2CCOCC2)cc1)N1CCCC1
    -0.8%	1%	4	-5%
CC(=O)Nc1ccc(/C=C/C(=O)c2ccccc2)cc1
    .	-35%	-5	.
COC(=O)c1ccc(COC(=O)[C@@H]2CC(O)CN2S(=O)(=O)c2ccccc2[N+](=O)[O-])cc1 (stereo partly specified)
    -0.1%	.	.	0%
O=S(=O)(Nc1ncccc1O)c1ccc(Cl)cc1
    3.4%	-5%	-4	0%
CC(OC(=O)CCCN=C1NS(=O)(=O)c2ccccc21)C(=O)N(C)c1ccccc1 (stereo unspecified)
    1.6%	.	.	9%
NNC(=O)CSCc1nc(-c2ccc(Cl)cc2)cs1
    -2.0%	0%	-4	-7%
CC(C)(C)OC(=O)NCc1ccc(NC(=O)c2nc[nH]c2C(=O)NCCCCCCNC(=O)c2[nH]cnc2C(=O)Nc2ccc(CNC(=O)OC(C)(C)C)cc2)cc1
    -1.3%	.	.	1%
CCOC(=O)c1ccc(NC(=O)COc2ccc(S(=O)(=O)NC(C)(C)C)cc2)cc1
    -0.8%	-10%	1	0%
COc1ccc(CCNc2nc(C)c(C(C)=O)s2)cc1OC
    2.3%	-7%	.	16%
Cc1c(C(=O)N2CCCC2)c(S(=O)(=O)N2CCCCC2)c(C)n1C
    0.8%	0%	.	-1%
Nc1c(Cl)cc(-c2csc(N3CCCC3c3nc4cc(Cl)c(N5CCCCC5)cc4n3CCCO)n2)cc1Cl (stereo unspecified)
    0.1%	.	.	11%
CC(C)(C)OC(=O)N1CCC(c2c(C(=O)NCC3CCN(C4CCCC4)C3)cnn2-c2ccccc2Cl)CC1 (stereo unspecified)
    -1.6%	-3%	.	-3%
O=C(NCc1ccco1)C(c1ccccc1)N(CC1CCCO1)C(=O)Cn1nnc2ccccc21 (stereo unspecified)
    4.9%	7%	-4	36%
CCn1c(C)csc1=NC(=O)c1ccccc1
    -0.1%	-27%	2	13%

Of the compounds above, 3 contain a thiophene ring, fused or not:
The line under a structure holds: Rango complex inh	miR-21 FLuc	GLA inh pH 4.5	Rango dissoc inh
CCOC(=O)c1c(N)sc2c(NC(C)=O)cccc12
    0.7%	-1%	-2	4%
COC(=O)[C@@H]1C[C@H]2CC[C@H](O)C[C@H]2N1Cc1ccc(C)s1
    -0.5%	5%	-4&0	-16%
COc1cc(NC(=O)CSc2ncnc3sc4c(c23)CCC(C)C4)c(C(=O)O)cc1OC (stereo unspecified)
    -0.1%	-6%	.	-3%

Assay outcomes from PubChem BioAssay.
